Marburg entry inh – Marburg virus entry inhibition; AID 540276; 1.8% of 300,000 active; Potency, µM (doses to about 37.8 µM), inactives show at the highest dose activity change, negative = inhibition, actives largely listed as inhibitors; Marburg virus pseudotyped entry inhibition, cell reporter; control for the full effect not named in the record; about a third of the inactives were read at about 46 µM; active = well fitted inhibition curve with a large enough effect; inconclusive = small, poorly fitted or top-dose-only effect, or effect the other way; inactive = flat fitted curve, though single readings scatter; tested in HEK293 cells; about a fifth of its hits are not listed in these tables; note: % is set by controls: 0 for no effect and ±100 for the full control effect; luciferase read-out
Cruzain noTriton – blocks cruzain activity in detergent-free assay. P25779. purified cruzain, Z-FR-AMC fluorescence, no detergent. Potency, µM, for inactives: max response, negative = inhibition, most hits filed as inhibitors. 2.3% of 200,000 active; active = well fitted curve in the direction sought with a large enough effect; inconclusive = small, poorly fitted or top-dose-only effect, or another doubt; inactive = no such curve, though single readings can be large; an effect the other way counts as inactive or inconclusive;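 note: plate controls were enzyme without inhibitor for no effect and buffer without enzyme for full effect; nearly all actives have a fitted effect of over 40% in size; top concentration of the series not given in the record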
Target sequence (P25779 123-467 limits assumed): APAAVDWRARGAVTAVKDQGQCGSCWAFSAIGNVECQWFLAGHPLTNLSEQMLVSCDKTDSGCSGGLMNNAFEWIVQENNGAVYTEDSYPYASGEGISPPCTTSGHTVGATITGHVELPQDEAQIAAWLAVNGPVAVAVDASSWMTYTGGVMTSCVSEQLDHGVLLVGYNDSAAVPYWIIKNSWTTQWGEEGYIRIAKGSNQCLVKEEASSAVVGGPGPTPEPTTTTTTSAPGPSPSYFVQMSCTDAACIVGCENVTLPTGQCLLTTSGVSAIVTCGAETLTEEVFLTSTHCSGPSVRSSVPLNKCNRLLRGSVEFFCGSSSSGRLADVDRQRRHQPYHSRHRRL
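Purified cruzain at 1.5 nM, pre-incubated 15 min with compound at room temperature in 100 mM sodium acetate pH 5.5, 5 mM DTT, 0.00005% Triton X-100. Reaction started with 2 uM Z-FR-AMC; AMC fluorescence increase over 60 s gives rate.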
Cruzain Triton – cruzain (T. cruzi) inhibition with detergent | P25779 | purified cruzain, Z-FR-AMC fluorescence, 0.01% Triton | Potency, µM, for inactives: max response, negative = inhibition, usual class: inhibitors | 0.43% of 200,000 active; active = well fitted curve in the direction sought with a large enough effect; inconclusive = small, poorly fitted or top-dose-only effect, or another doubt; inactive = no such curve, though single readings can be large; an effect the other way counts as inactive or inconclusive;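 note: plate controls were neutral wells for no effect and buffer without enzyme for full effect; nearly all actives have a fitted effect of over 40% in size; top concentration of the series not given in the record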
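Z-FR-AMC hydrolysis (2 uM substrate) by cruzain (1.5 nM) monitored kinetically at ex 360/em 450 nm after 15 min room-temperature compound exposure; 0.01% Triton X-100, pH 5.5, 5 mM DTT.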
SARS PLpro yeast – SARS-CoV PLP inhibition in yeast. 0.19% of 330,000 active. AID 485353. S. cerevisiae expressing SARS-CoV PLpro, growth rescue; control for the full effect not named in the record. Potency, µM (highest dose often 32.9 µM), inactives show at the top dose activity, positive = growth rescue; note: 0% is about no effect; nearly all actives have a fitted effect of over 55% in size; growth read by luminescence after 48 h
NS1 inh – inhibitors of influenza NS1 protein function | 0.4% of 270,000 active | S. cerevisiae slowed by influenza A NS1, growth recovery by OD600 | Potency, µM (series often up to 46.1 µM), for inactives: at the top dose activity, positive = more growth; note: actives are rising curves; nearly all actives have a fitted effect of over 50% in size
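Growth recovery, yeast-based: influenza A NS1 expressed in S. cerevisiae causes slow growth, and suppressors are detected by OD600. The parent strain without NS1 is used as positive control.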
2A StopGo – FMDV 2A StopGo reporter, luciferase signal. human cells with a luciferase reporter of 2A StopGo recoding; control for the full effect not named in the record. Potency, µM (doses to about 57.9 µM), for the others: at the top dose signal change, negative = less light. 1.2% of 410,000 active; active = well fitted falling curve with a large enough effect; inconclusive = small, poorly fitted or top-dose-only effect; inactive = no such curve, though single readings can be large or run the other way; tested in HEK293T cells; note: % is set by controls: 0 for no effect and ±100 for the full control effect; nearly all actives have a fitted effect of over 45% in size; luciferase light after 4 h
Lassa entry inh – Lassa virus entry inhibition | AID 540256 | 1.2% of 300,000 active | Potency, µM (highest dose often 37.9 µM), without a hit: at the top dose activity change, negative = inhibition, usual class: inhibitors | Lassa virus pseudotype entry inhibition, cell reporter; control for the full effect not named in the record; active means well fitted inhibition curve with a large enough effect; inconclusive means small, poorly fitted or top-dose-only effect, or effect the other way; inactive means flat fitted curve, though single readings scatter; tested in HEK293 cells; note: % is set by controls: 0 for no effect and ±100 for the full control effect; nearly all actives have a fitted effect of over 50% in size; luciferase read-out
RE007 growth inh – less growth of the S. pombe RE007 Vpr strain; S. pombe RE007 Vpr strain, BacTiter-Glo ATP luminescence, 24 h; control for the full effect not named in the record; Potency, µM (titrated, usually from 92.2 µM), for the others: at the top dose activity change, negative = less growth; 0.21% of 360,000 active; AID 651644; active = well fitted falling curve with a large enough effect; inconclusive = small, poorly fitted or top-dose-only effect; inactive = no such curve, though single readings can be large or run the other way;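 note: % is set by controls: 0 for no effect and ±100 for the full control effect; nearly all actives have a fitted effect of over 50% in size; the assay follows cell death caused by Vpr and the record does not say whether a fall means rescue or toxicity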
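Fission yeast strain RE007, carrying one chromosomally integrated HIV-1 vpr copy, was seeded at OD 0.01 in PMG+AL medium with 23 nL pinned compound. After 24 h at 30 °C and 99% humidity, viability was read by BacTiter-Glo luminescence.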
The depositor's hits bear a star; ? = inconclusive; · = not tested or not shown; & = joins results of further samples; [ ] = dose if it differs, or a comment. Unless noted, calls come from the whole dose curve; as a rule, active means well fitted rising curve with a large enough effect; inconclusive means small, poorly fitted or top-dose-only effect; inactive means no such curve, though single readings can be large or run the other way. Potency is the fitted concentration of half-maximal effect.

1: C#CCNC(=O)C1CCN(c2cc(C)nc(-c3ccccc3)n2)CC1
2: Cc1ccccc1CC1(CO)CCCN(Cc2cn[nH]c2-c2ccccc2)C1 (stereo unspecified)
3: COc1cc(OC)cc(C(=O)Nc2nc(-c3ccccc3)c(-c3ccccc3)o2)c1
4: CC(=O)Nc1nnc(C2=COCCO2)o1
5: COc1ccc(OC)c(-c2csc(NC(=O)CSc3ccccc3)n2)c1
6: COc1cc(S(=O)(=O)NCc2ccccc2)ccc1Br

Screen / compound no.	1	2	3	4	5	6
Marburg entry inh	20%[46.1 µM]	-1%[46.1 µM]	21µM*	-1%[46.1 µM]	?	-1%
Cruzain noTriton	·	·	-3%	·	4%	-9%
Cruzain Triton	·	·	-4.6%	·	-6.1%	-7.2%
SARS PLpro yeast	0%	1%	-6%	3%	-17%	-1%
NS1 inh	-3%	-3%	9%	·	-11%	-9%
2A StopGo	10%	-11%	-25%	-2%	0%	77%[activator]
Lassa entry inh	0%	11%	?	-14%	16µM*	?
RE007 growth inh	1%	0%	-10%	-1%	1%	·

7: N#Cc1ccc(OCC(O)CN2CCN(C(c3ccccc3)c3ccccc3)CC2)cc1 (stereo unspecified)
8: N#CCc1ccc(NC(=O)Nc2cccc(Cl)c2)cc1
9: c1ccc(-c2ccc(-c3ccccc3)[nH]2)cc1
10: CCOC(=O)C1CCN(Cc2cc(Cl)c3ccccc3c2O)CC1
11: CCOC(=O)c1c(C)oc2nc(C)nc(Nc3ccc(C)c(Cl)c3)c12
12: COc1ccc(CCNC(=O)c2cc(=O)c3c(C)cc(C)cc3o2)cc1OC

Screen / compound no.	7	8	9	10	11	12
Marburg entry inh	?	·	?	?	·	?
Cruzain noTriton	·	5%	·	·	-1%	-18%
Cruzain Triton	·	-10%	·	·	0.8%	-0.6%
SARS PLpro yeast	7%	6%	·	-21%	·	·
NS1 inh	-23%	-6%	·	-41%	·	·
2A StopGo	-4%	12%	13%	-7%	-20%	?
Lassa entry inh	2%[46.1 µM]	-20%	?	-3%[46.1 µM]	?	4%[46.1 µM]
RE007 growth inh	4%	13%	?	?	·	·

Record cards, from the list above. Order of values: Marburg entry inh	Cruzain noTriton	Cruzain Triton	SARS PLpro yeast	NS1 inh	2A StopGo	Lassa entry inh	RE007 growth inh
c1ccc(-c2ccc(-c3ccccc3)[nH]2)cc1 is listed as ?	·	·	·	·	13%	?	?
COc1cc(S(=O)(=O)NCc2ccccc2)ccc1Br is listed as -1%	-9%	-7.2%	-1%	-9%	77%[activator]	?	·
CCOC(=O)C1CCN(Cc2cc(Cl)c3ccccc3c2O)CC1 is listed as ?	·	·	-21%	-41%	-7%	-3%[46.1 µM]	?
Cc1ccccc1CC1(CO)CCCN(Cc2cn[nH]c2-c2ccccc2)C1 (stereo unspecified) is listed as -1%[46.1 µM]	·	·	1%	-3%	-11%	11%	0%

New compounds follow
13: C/C(CC(O)c1ccc2ccccc2n1)=N/O (stereo unspecified)
14: COCC(=O)Nc1sc2c(c1C(=O)OC)CCCC2
15: CCCCn1c(CNC(=O)CC)nc2ccccc21
16: CCN1CCN(c2nc(N)c([N+](=O)[O-])c(Nc3ccc(C)cc3)n2)CC1
17: C=CCNC(=O)CSc1nnc(-c2ccccc2Br)n1-c1cccc(C(F)(F)F)c1
18: CN1CCN(C2=Nc3ccccc3Oc3ccc(Cl)cc32)CC1

Screen / compound no.	13	14	15	16	17	18
Marburg entry inh	2%	3%	·	5%	-36%	12µM*
Cruzain noTriton	?	?	0%	4%	?	-4%&4%&-2%&-8%
Cruzain Triton	1.0%	-9.8%	1.5%	-7.5%	-3.1%	-1.0%&-3.7%&-3.5%&-2.9%
SARS PLpro yeast	-3%	-24%	-1%	6%	4%	-3%&-1%
NS1 inh	5%	-53%	1%	11%	-19%	?
2A StopGo	31%[activator]	20%	16%	-16%	-26%	-20%&-16%
Lassa entry inh	21%	5%	·	-2%	-26%	-27%&-25%
RE007 growth inh	-1%	-14%	-7%	12%	-11%	-3%[18.4 µM]

19: Cc1nc2ccccc2c2oc(C(=O)N3CCCC(C)C3)cc12 (stereo unspecified)
20: O=C(c1cc(S(=O)(=O)N2CCCCC2)ccc1Cl)N1CCOCC1
21: O=C(CCCOc1ccc(Cl)cc1)NCCc1ccccc1
22: CCOC(=O)c1sc2cccc(Cl)c2c1N
23: Cc1nnc(NC(=O)CSc2nccn2-c2ccc(F)cc2)s1
24: O=C(Cc1ccccc1)Nc1ccc(NC(=O)c2cccs2)c(Cl)c1

Screen / compound no.	19	20	21	22	23	24
Marburg entry inh	·	23%[46.1 µM]	-2%	-3%	3%[46.1 µM]	?
Cruzain noTriton	·	·	·	4%	·	?
Cruzain Triton	·	·	·	-6.1%	·	-2.0%
SARS PLpro yeast	-15%	1%	-8%	-14%	9%	6%
NS1 inh	-22%	10%	-28%	-4%	·	1%
2A StopGo	0%	10%	-9%	7%	-6%	16%
Lassa entry inh	·	5%	?	20%	·	12%
RE007 growth inh	25%	4%	3%	?	8%	·

25: N#Cc1ccc(-c2ccc(OCC(=O)NN=Cc3ccncc3)cc2)cc1
26: Cc1nc2ccn(Cc3cccs3)c(=O)c2cc1C(=O)N1CCN(c2ccccc2F)CC1
27: COc1ccc(NC(=O)Oc2ccccc2)cc1Cl
28: O=C(Nc1cccc(Cl)c1)c1cc([N+](=O)[O-])ccc1N1CCN(CCO)CC1
29: CCOc1ccc(N2CC(O)Cn3c2nc2c3c(=O)n(CCCc3ccccc3)c(=O)n2C)cc1 (stereo unspecified)
30: CN1CCc2cc3c(c4c2C1Cc1ccccc1-4)OCO3 (stereo unspecified)

Screen / compound no.	25	26	27	28	29	30
Marburg entry inh	6%	·	-1%	-21%[46.1 µM]	?	?
Cruzain noTriton	·	?	·	·	?	·
Cruzain Triton	·	-6.8%	·	·	-2.8%	·
SARS PLpro yeast	4%	·	-2%	-1%	-3%	-3%
NS1 inh	·	·	6%	2%	-26%	-12%
2A StopGo	?	-12%	23%	23%	?	-27%
Lassa entry inh	1%	-4%[46.1 µM]	-4%	7%[46.1 µM]	-20%	0%[46.1 µM]
RE007 growth inh	-10%	·	-6%	?	-9%	-2%

31: CCc1ccc(C(=O)Nc2cc(C)on2)o1
32: Cc1cc(-c2nnc(-c3cccc(C(F)(F)F)c3)o2)no1
33: COc1cc(Cl)c(S(=O)(=O)NCCCn2ccnc2)cc1Cl
34: O=S(=O)(Nc1ccc2c(c1)OCCO2)c1cccc2cccnc12
35: CCC(NC(=O)CC[C@H]1O[C@@H](n2cc(C)c(=O)[nH]c2=O)C[C@@H]1O)c1ccccc1 (stereo partly specified)
36: Cc1nc2c(C(=O)O)cnn2c(C)c1Cc1ccccc1F

Screen / compound no.	31	32	33	34	35	36
Marburg entry inh	?	-20%	6%[46.1 µM]	5%	6%	1%
Cruzain noTriton	·	·	·	-2%	·	-13%
Cruzain Triton	·	·	·	-2.9%	·	0.6%
SARS PLpro yeast	0%	1%	-6%	3%	-16%	-3%
NS1 inh	-24%	-5%	18%	-6%	·	2%
2A StopGo	41%[activator]	44%[activator]	17%	26%	-5%	7%
Lassa entry inh	1%[46.1 µM]	?	-5%[46.1 µM]	6%	·	0%
RE007 growth inh	-10%	-9%	19%	5%	0%	8%

37: CCOC(=O)N1CCN(C(=O)C2CC(=O)N(Cc3ccc(OC)cc3)C2)CC1 (stereo unspecified)
38: CC(=O)Nc1ccc(NC(=O)CSc2ncnn2-c2ccccc2)cc1
39: Cc1cc(-c2ccccc2)c(C#N)c(SCC(N)=O)n1
40: Cc1ccc(S(=O)(=O)Nc2ccccc2F)cc1C(=O)NNC(=O)c1csc(N2CCOCC2)n1
41: COc1ccc(Nc2nc(N)c([N+](=O)[O-])c(NCCO)n2)cc1
42: CCc1ccc(C2=NN(CCC(=O)NCCc3ccc(OC)c(OC)c3)C(=O)CC2)cc1

Screen / compound no.	37	38	39	40	41	42
Marburg entry inh	8%	18%[46.1 µM]	1%[46.1 µM]	?	?	·
Cruzain noTriton	4%	-9%	-5%	·	·	?
Cruzain Triton	-3.1%	0.2%	-0.3%	·	·	-1.1%
SARS PLpro yeast	9%	13%	7%	-5%	-3%	·
NS1 inh	-6%	19%	4%	·	5%	·
2A StopGo	-7%	-6%	-19%	-7%	19%	-24%
Lassa entry inh	-17%	-11%	-10%	-17%	-13%	?
RE007 growth inh	9%	36%	5%	-2%	-1%	·

43: Brc1ccc(/C=N/Nc2ccccc2)cc1
44: COc1ccc(NC(=O)CSCc2cc(=O)n3cc(C)sc3n2)cc1
45: Cc1nnc(SCC(=O)N2c3ccccc3C(C)(c3ccc(Cl)cc3)CC2(C)C)s1 (stereo unspecified)
46: CC(C)c1nnc(N2C(=O)c3oc4ccccc4c(=O)c3C2c2cccc(O)c2)s1 (stereo unspecified)
47: O=C(/C=C/c1ccc(Br)cc1)Nc1ccc(S(=O)(=O)Nc2ncccn2)cc1
48: COc1ccc(N2CCN(C(=O)c3sc4nc(-c5ccc(F)cc5)cn4c3C)CC2)cc1
49: CC(C)(C)c1ccc(C(=O)N2CCN(Cc3cc(=O)n4nc(-c5ccccc5F)sc4n3)CC2)cc1
50: Cc1cc(C)c(NC(=O)CO/N=C2\CCCc3nonc32)c(C)c1

Screen / compound no.	43	44	45	46	47	48	49	50
Marburg entry inh	?	·	10µM*	11%[46.1 µM]	9%	·	·	17%
Cruzain noTriton	-24%	·	0%	5%	·	0%	20%	8%
Cruzain Triton	-8.5%	·	-3.0%	-3.2%	·	-0.7%	2.4%	2.5%
SARS PLpro yeast	-53%	1%	-49%	·	-1%	8%	·	4%
NS1 inh	-8%	3%	-8%	·	6%	-6%	·	6%
2A StopGo	28%	-13%	?	-28%	-11%	-30%	-13%	2%
Lassa entry inh	-8%	·	10µM*	11%[46.1 µM]	1%	·	-2%[46.1 µM]	-4%
RE007 growth inh	29%	6%	4%	·	-9%	-7%	·	0%

Values in list order from above.
RE007 growth inh for nos. 43 to 50 → 29%, 6%, 4%, ·, -9%, -7%, ·, 0%
2A StopGo for nos. 43 to 50 → 28%, -13%, ?, -28%, -11%, -30%, -13%, 2%
SARS PLpro yeast for nos. 43 to 50 → -53%, 1%, -49%, ·, -1%, 8%, ·, 4%

Compound activity from PubChem.
